CtBP-E1A inh – inhibitors of CtBP/E1A interaction; AlphaScreen GST-E1A/His-CtBP binding, 1536-well; stronger effect = lower value; control for the full effect not named in the record; activity change, % (concentration not given with the values); actives 0.49% (n = 340,000); in the data active means activity change below about -65%; inconclusive means about -30% to -65%; inactive means above about -30%; also: % is scaled to controls: 0 for no effect and ±100 for the full control effect
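In 5 uL wells, 23 nL compound meets equimolar GST-E1A and His-CtBP (5X stock 125 nM each) for 2 h, 37 °C. Beads (5X, 50 ug/mL) then 1 h, 37 °C, dark.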
Six1-Eya2 inh – inhibitors of human Six1/Eya2 interaction; AlphaScreen GST-Six1/His-Eya2 binding, biochemical; stronger effect = lower value; control for the full effect not named in the record; actives 0.56% (n = 360,000); activity change, % (no concentration beside the values); Q15475+O00167; in the data active = activity change below about -65%; inconclusive = about -30% to -65%; inactive = above about -30%; also: % is scaled to controls: 0 for no effect and ±100 for the full control effect; compound concentration not given in the record
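Six1/Eya2 binding was read as AlphaScreen signal after compounds were pinned into GST-Six1 plus His-tagged Eya2 (5X stock 250/500 nM) in pH 8.0 Tris/NaCl/TCEP buffer, beads added, then incubated 1 h, 37 C, dark.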
gsp agonist – agonists of gsp mutant (McCune-Albright syndrome); actives 0.13% (n = 340,000); Potency, µM (top dose mostly 76.9 µM), for the others: top-dose activation (cAMP increase), usual class: activators; gsp mutant cells, cAMP HTRF, 30 min; control for the full effect not named in the record; active = well fitted activation curve with a large enough effect; inconclusive = small, poorly fitted or top-dose-only effect, or another doubt; inactive = no such curve, though single readings can be large or run the other way; cell line not stated here;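 also: phosphodiesterase inhibitor Ro 20-1724 added with compounds to block cAMP breakdown; potency is read from the fitted curve at half-maximal effect; nearly all actives have a fitted effect of over 60% in size; about a fifth of the inactives were tested at one dose only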
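Cells stably selected in G418 were plated at 2000/well, grown 16-24 hr, then given compounds in DMSO with the PDE inhibitor […] (300 uM solution added) for 30 min at 37C; cAMP was read by HTRF.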
D2 agonist – human D2 receptor agonism in beta-arrestin assay | P14416 | DiscoveRx PathHunter D2 beta-arrestin, luminescence, 90 min; 100% = 57 uM dopamine signal | activation, % (concentration not given with the values) | actives 0.084% (n = 360,000); in the data active = activation above about 40%; inconclusive = about 15% to 40%; inactive = below about 15%; also: compound concentration not given in the record; the text of the record calls up to 30% inactive
Target sequence (P14416 whole entry, looked up): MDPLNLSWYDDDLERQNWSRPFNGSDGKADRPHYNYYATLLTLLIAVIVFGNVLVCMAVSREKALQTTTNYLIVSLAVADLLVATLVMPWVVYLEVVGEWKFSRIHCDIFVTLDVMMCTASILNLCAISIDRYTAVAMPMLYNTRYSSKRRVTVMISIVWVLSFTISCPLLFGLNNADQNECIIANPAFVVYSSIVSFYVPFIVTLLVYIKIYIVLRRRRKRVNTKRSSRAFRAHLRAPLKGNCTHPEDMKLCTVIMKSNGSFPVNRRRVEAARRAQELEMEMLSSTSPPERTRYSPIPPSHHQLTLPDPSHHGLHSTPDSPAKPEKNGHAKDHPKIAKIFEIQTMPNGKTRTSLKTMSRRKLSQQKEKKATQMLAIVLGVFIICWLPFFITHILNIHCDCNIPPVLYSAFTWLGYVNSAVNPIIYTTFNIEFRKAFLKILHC
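Agonist mode: compounds alone added to overnight-plated D2 PathHunter cells for 90 min at 37 C, with 57 uM final dopamine (EC100) defining full response. Beta-arrestin recruitment detected by chemiluminescent reagent, read after 1 h at ambient temperature.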
gsp antag – antagonists of gsp mutant (McCune-Albright syndrome) | Potency, µM (doses to about 76.9 µM), without a hit: at the highest dose activity change, negative = inhibition, actives largely listed as inhibitors | actives 0.4% (n = 340,000) | gsp-mutant cells, cAMP HTRF, 30 min; control for the full effect not named in the record; active = falling curve of any shape with a large fitted effect; inconclusive = falling curve, mostly with a smaller effect; inactive = flat or rising curve; cell line not stated here;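 also: intracellular cAMP measured with PDE inhibitor Ro 20-1724 present during compound exposure; potency is read from the fitted curve at half-maximal effect; % is scaled to controls: 0 for no effect and ±100 for the full control effect; nearly all actives have a fitted effect of over 65% in size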
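Cells, 2000/well, grown 16–24 h in DMEM 10% FBS with 0.5 mg/ml G418, then compounds plus […] (300 uM addition stock), 30 min at 37C. cAMP read by HTRF (cAMP-d2 and anti-cAMP antibody-K in lysis buffer) after 30 min RT.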
D2 PAM – positive allosteric modulators of human D2 dopamine receptor | P14416 | DiscoveRx D2 beta-arrestin cells, luminescence, 90 min; 100% = 57 uM dopamine signal | potentiation, % (test concentration not listed) | actives 0.23% (n = 360,000) | AID 624464; active = potentiation of 50% or more; inconclusive = 30% to 50%; inactive = 30% or less;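 also: compound concentration not given in the record; tested on top of an EC20 dose of dopamine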
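PathHunter beta-arrestin assay in DiscoveRx D2 cells. Compounds were added with an EC20 of dopamine (50 nM final) for 90 min at 37 deg C. Luminescence was read 1 h after detection reagent, with 57 uM dopamine as the EC100 control.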
An asterisk follows results filed as active; ? = inconclusive; / = no result given; & = joins results of further samples; [ ] = remark or other dose.

SMILES	CtBP-E1A inh	Six1-Eya2 inh	gsp agonist	D2 agonist	gsp antag	D2 PAM
CCn1cc(C(=O)NCCCOC)c(=O)c2cc(S(=O)(=O)N3CCCC3)ccc21	/	-1	-14%	-1.2	4%	-3
CCSc1cc(Cl)nc(N)n1	3	1	-8%[15.4 µM]	-17	8%	-6
CCOc1ccc(NC(=O)CSc2nc3ccccc3c(=O)n2CCCC(=O)NCC2CCCO2)cc1 (stereo not drawn)	-11	3	-37%[inhibitor]	-2.2	13%	-5
Cc1ccc(C)n1C(CC(=O)O)c1ccc(C#N)cc1 (stereo not drawn)	-10	-6	17%	-3.9	4%	1
O=C(/C=C/c1ccccc1)NC(=S)Nc1ccc2c3c(cccc13)CC2	1	-6	-14%	-1.3	0%	-3
COC(=O)c1ccc(Oc2ccc3nncn3n2)cc1	-1	-3	5%	-3.1	8%	-24
NS(=O)(=O)c1ccc(CCNC(=O)Cn2c(=O)c3cccn3c3cccnc32)cc1	-13	-1	22%	-12	3%	-13
C/C(=N\O)C(C)(C)Nc1ccc(Cl)cc1	6	8	-31%[inhibitor]	-3.8	1%	-5
COC(=O)c1c(N2C(=O)Nc3ccccc3N2O)sc2c1CCCC2	-8	-4	9%[15.4 µM]	-3.7	-20%	2
CC(=O)c1ccccc1OC(=O)CCN1C(=O)C2C3C=CC(C4CC34)C2C1=O (stereo not drawn)	7	4	?	-3.5	0%	-1
Cc1ccc(NC2=CC(=O)CC(c3ccccc3)C2)cc1 (stereo not drawn)	2	-11	-4%[15.4 µM]	1.5	9%	-10
O=C(NCCSCc1ccccc1)c1ccccc1	-2	-8	-12%	0.6	-9%	-8
CC(C)c1nnc(NC(=O)CCC(=O)NC2CCCCC2)s1	4	0	-1%[15.4 µM]	-8.0	-4%	1
CCOC(=O)CSc1nnc(CNc2cccc(Cl)c2)n1-c1ccccc1	-5	-1	-23%	-2.2	-21%	-5
O=[N+]([O-])c1ccc(NC(=S)N2CCN(c3ccc(F)cc3)CC2)cc1	1	-8	35%	0.6	?	-27
CC(C)Cc1nc(N2CCN(C(=O)c3ccco3)CC2)c(C#N)c2c1CCCC2	-14	-8	13%	-5.5	?	-10
COc1ccnc(Oc2ccc(F)cc2)c1C(=O)N/C=N/OCc1ccc(F)cc1	-15	3	1%	-2.7	2%	-11
Cc1cc(C(=O)OCC(=O)c2ccc3c(c2)NC(=O)CO3)c2ccccc2n1	2	2	?	-2.5	3%	1
OC(c1ccccc1)(c1nc(-c2ccc(Cl)cc2)cs1)C(F)(F)F (stereo not drawn)	15	3	/	4.0	/	-3
Cc1ccc(S(=O)(=O)CCC(O)c2ccc(Cl)cc2)cc1 (stereo not drawn)	-1	-1	5%	1.2	-8%	-14
CC(C)(C)OC(=O)CNC(=O)c1[nH]cnc1C(=O)N[C@@H](CCCCNC(=O)OC(C)(C)C)C(=O)OC(C)(C)C	2	0	/	-0.3	4%	-4
Cc1ccc(Cn2nnc3c(=O)n(CC(=O)NCc4ccc5c(c4)OCO5)cnc32)cc1	0	2	14%	-2.1	-5%	8
COc1ccccc1NS(=O)(=O)c1cccc(C(=O)N2CCCCCCC2)c1	-4	3	-72%[inhibitor]	-8.9	?	12
CCCCOC(=O)c1ccc(N2C(=O)CC(N3CCN(C/C=C/c4ccccc4)CC3)C2=O)cc1 (stereo not drawn)	-6	-2	20%	0.4	5%	5
C/C=C/C(=O)NCCc1ccc(OC)c(OC)c1	-8	12	14%[15.4 µM]	-3.1	1%	-9
C[C@H](NC(=O)c1ccccc1)C(=O)N1CCN(c2ccccc2)CC1	9	-5	0%[15.4 µM]	0.8	10%	-3
COc1cccc(/C=N/n2c(C3CCCCC3)n[nH]c2=S)c1	/	-8	-24%	2.2	0%	-8
CC1(C)CC(=O)CC2(C1)NCC(c1ccccc1Cl)c1c2[nH]c2ccccc12 (stereo not drawn)	-10	-4	-5%[15.4 µM]	-6.1	-101%	0
Cc1noc(C)c1S(=O)(=O)Nc1ccc(C(=O)NCc2ccccc2)cc1	5	0	5%[15.4 µM]	-1.9	2%	-4
CCC[N+]1(CC#CCC(c2ccccc2)c2ccccc2)CCCCC1	7	-1	-4%	-0.7	11%	-5
Cc1cccc(C)c1-n1nnnc1C(c1ccnc2ccccc12)N1CCN(C/C=C/c2ccccc2)CC1 (stereo not drawn)	-27	?	/	-2.8	/	-16
CC1=C(C(=O)OCc2ccc3c(c2)OCO3)C(c2cccc([N+](=O)[O-])c2)NC(=O)N1 (stereo not drawn)	/	-4	-63%[inhibitor]	1.3	-6%	2
COc1ccccc1CNC(=O)C1CCN(S(=O)(=O)c2ccc3c(c2)CC(C)N3C(C)=O)CC1 (stereo not drawn)	-5	2	-20%	2.8	-16%	-4
COc1ccc(-c2ncccc2O)cc1	-5	5	-3%	-4.1	6%	0
CC1(c2ccc3ccccc3c2)CCC(=O)O1 (stereo not drawn)	0	10	-3%	-1.3	3%	-13
O=C(Nc1cccc2c1CCCC2)c1cc(C2CCCCN2S(=O)(=O)c2cccs2)on1 (stereo not drawn)	-19	4	/	0.4	/	-7
O=C(Cc1nc(=O)c2ccccc2s1)Nc1ccccc1	-2	-2	9%	-5.0	-13%	-11
COc1ccc(CNC(=O)C2CCCN(S(=O)(=O)c3ccccc3)C2)cc1 (stereo not drawn)	3	3	-1%	-2.8	1%	15
Fc1ccc(-c2csc3ncnc(N4CCN(Cc5ccccc5)CC4)c23)cc1	2	1	-50%	-2.6	7%	-6
COc1ccc(N2CCN(C(CNS(=O)(=O)c3ccc4c(c3)OCCO4)c3ccco3)CC2)cc1 (stereo not drawn)	-11	?	-16%	-0.7	3%	-13
COc1ccc(/C=C/C(=O)O)cc1S(=O)(=O)NCc1ccco1	0	0	-2%	-3.2	7%	-2
CCOC(=O)c1c(C)[nH]c(C)c1S(=O)(=O)NC(CC)CN1CCOCC1 (stereo not drawn)	3	0	-29%	-1.0	7%	-9
COc1ccccc1C(=O)C1CCCN(C(=O)c2ccc(C(C)=O)s2)C1 (stereo not drawn)	0	1	-11%	1.0	7%	-7
Clc1ccccc1Cc1noc(CN2CCSCC2)n1	9	-2	-15%[15.4 µM]	-1.2	-8%	-2
Cc1ccccc1NC(=O)Cc1nc(COC(=O)Cc2ccccc2F)cs1	-3	5	-34%[inhibitor]	5.7	4%	-2
CCS(=O)(=O)N1CCC2(CC1)OCCN2S(=O)(=O)c1ccc(C)cc1	6	7	19%	-1.6	-2%	-17
Cc1csc(NC(=O)CSc2nc(C)nc3c2c(=O)n(C)c(=O)n3C)n1	0	0	-11%	3.5	-8%	-5
COC(=O)C(NC(=O)CCc1nnc2ccc(N3CCCCC3)nn12)C(C)C (stereo not drawn)	-5	1	10%	6.3	-16%	-6
COc1ccc(CN2CCCC(C(=O)c3ccc(Cl)cc3)C2)cc1Cn1cncn1 (stereo not drawn)	/	2	19%	0.7	-1%	1
Cc1cc(OC(C)C(=O)NCc2ccncc2)c2c(C)c(C)c(=O)oc2c1 (stereo not drawn)	-5	0	31%	2.8	4%	-4

Three structures out of the list, ordered by count of non-hydrogen atoms, highest first:
SMILES	CtBP-E1A inh	Six1-Eya2 inh	gsp agonist	D2 agonist	gsp antag	D2 PAM
COc1cccc(/C=N/n2c(C3CCCCC3)n[nH]c2=S)c1	/	-8	-24%	2.2	0%	-8
Cc1ccc(NC2=CC(=O)CC(c3ccccc3)C2)cc1 (stereo not drawn)	2	-11	-4%[15.4 µM]	1.5	9%	-10
Clc1ccccc1Cc1noc(CN2CCSCC2)n1	9	-2	-15%[15.4 µM]	-1.2	-8%	-2

More compounds follow.
SMILES	CtBP-E1A inh	Six1-Eya2 inh	gsp agonist	D2 agonist	gsp antag	D2 PAM
O=C(NCc1ccncc1)C1CCCN(S(=O)(=O)c2ccc(Br)cc2)C1 (stereo not drawn)	4	3	3%	-1.8	-10%	-21
O=C(CCCc1cccs1)Nc1nccs1	-22	-1	-5%	6.7	14%	-1
O=C(Nc1cccc(C(=O)N2CCCCC2)c1)C1CCCCC1	5	-1	/	-0.8	10%	/
Cc1cccc(OCC(=O)N/N=C/c2cc([N+](=O)[O-])ccc2N2CCOCC2)c1	4	-2	-8%	-2.8	?	-21
O=C(C[n+]1ccc(-c2nnc3n2CCC3)cc1)c1ccc(Cl)cc1	2	9	16%	-1.4	3%	-6
COc1ccc2c(c1OC)C(=O)OC2Nc1nc2ccccc2s1 (stereo not drawn)	0	-17	4%[15.4 µM]	-2.3	5%	0
COc1ccc(S(=O)(=O)N2CCN(c3ccc4nnc(-c5ccccc5)n4n3)CC2)cc1	-2	?	?	2.5	-10%	-6
COc1ccc2nc3ccccc3nc2c1NC(=O)c1ccc(Cl)cc1Cl	-27	?	25%	-7.5	4%	-25
CC(=O)c1cccc(N=C2NC(=O)CS2)c1	4	0	17%	-1.1	4%	-22
Cc1ccccc1-n1c(SCC(=O)c2c(N)n(C)c(=O)n(C)c2=O)nc2sc3c(c2c1=O)CCCC3	3	2	?	-2.7	-4%	-2

Limited to D2 agonist, gsp agonist and Six1-Eya2 inh (2 entries from above):
canonical_smiles	D2 agonist	gsp agonist	Six1-Eya2 inh
CC(=O)c1cccc(N=C2NC(=O)CS2)c1	-1.1	17%	0
COc1ccc2nc3ccccc3nc2c1NC(=O)c1ccc(Cl)cc1Cl	-7.5	25%	?

Next part.
SMILES	CtBP-E1A inh	Six1-Eya2 inh	gsp agonist	D2 agonist	gsp antag	D2 PAM
CC(C)Cn1c(SCC(=O)N2CCCCC2)nc2ccccc2c1=O	5	0	?	-0.2	-16%	15
C=CCNC(=O)COc1cc(C)ccc1C	4	6	-6%	-5.5	12%	-11
CS(=O)(=O)c1cccc(C(=O)Nc2nnc(C3=COCCO3)o2)c1	-11	-29	-3%[15.4 µM]	-11	5%	-20
Cc1cc(C)n(-c2nc(NCCO)c3c4c(sc3n2)CCCC4)n1	-7	-17	-5%	1.5	-8%	5
CCN(CC)CCNC(=O)COc1ccc(OC)cc1	3&4	-1&2	-75%[inhibitor]	-1.7&-7.0	4%&5%	-12&-21
Cc1ccccc1-c1noc(CCC(=O)NCC2CCCO2)n1 (stereo not drawn)	2	3	-48%[inhibitor]	1.5	-3%	-4
Cc1nnc2c3ccccc3c(-c3cccc4ccccc34)nn12	1	2	2%	2.3	7%	-9
CCc1c(C)nc2cc(-c3ccccc3)[nH]n2c1=O	-30	-24	-10%	1.1	-9%	-4
NS(=O)(=O)c1ccc(CCNC(=O)CCCNC(=O)c2ccc(Cl)cc2)cc1	1	12	11%[15.4 µM]	-3.4	4%	-12
O=C(COc1cccnc1[N+](=O)[O-])Nc1cccc(Br)c1	0	1	-15%	-3.1	-1%	-4
CCN(C(=O)N1CCOCC1)c1ccccc1	5	-5	3%[15.4 µM]	-4.0	7%	-5
CCC(C)C(=O)Nc1ccc(OC)cc1[N+](=O)[O-] (stereo not drawn)	0	19	-1%	-2.7	11%	-6
